# CtBP-E1A inh: blocks the CtBP interaction with E1A | AlphaScreen GST-E1A/His-CtBP binding, 1536-well; stronger effect = lower value; control for the full effect not named in the record | activity change, % (concentration not given with the values) | hit rate 0.49% among 340,000 | AID 651724; in the data active means activity change below about -65%; inconclusive means about -30% to -65%; inactive means above about -30%; also: % is scaled to controls: 0 for no effect and ±100 for the full control effect
#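 Homogeneous bead-based format: GST-tagged E1A captured on glutathione donor beads, His-tagged CtBP on nickel acceptor beads; compounds precede bead addition by 2 h at 37 °C.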
# TRPV1 potentiator: enhances activation of the human vanilloid receptor TRPV1 | Q8NER1 | TRPV1-expressing cells, Fluo-8 calcium influx, capsaicin EC20 potentiation; host cell line not named in the record; control for the full effect not named in the record | potentiation, % at 8.33 µM | hit rate 0.02% among 320,000; active means potentiation above 80%; inconclusive means 30% to 80%; inactive means below 30%; also: 0% is about no effect
#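 Cells expressing TRPV1 were dye-loaded with Fluo-8 and read kinetically: 10 s baseline, 3 min after compound (agonist portion), then 2 min after EC20 capsaicin (allosteric enhancer portion). Calcium-bound dye fluorescence at 480/520 nm.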
# Six1-Eya2 inh: inhibitors of human Six1/Eya2 interaction. hit rate 0.56% among 360,000. activity change, % (concentration not given with the values). Q15475+O00167. AlphaScreen GST-Six1/His-Eya2 binding, biochemical; stronger effect = lower value; control for the full effect not named in the record; in the data active = activity change below about -65%; inconclusive = about -30% to -65%; inactive = above about -30%; also: % is scaled to controls: 0 for no effect and ±100 for the full control effect
# Target sequence (O00167 whole entry, looked up): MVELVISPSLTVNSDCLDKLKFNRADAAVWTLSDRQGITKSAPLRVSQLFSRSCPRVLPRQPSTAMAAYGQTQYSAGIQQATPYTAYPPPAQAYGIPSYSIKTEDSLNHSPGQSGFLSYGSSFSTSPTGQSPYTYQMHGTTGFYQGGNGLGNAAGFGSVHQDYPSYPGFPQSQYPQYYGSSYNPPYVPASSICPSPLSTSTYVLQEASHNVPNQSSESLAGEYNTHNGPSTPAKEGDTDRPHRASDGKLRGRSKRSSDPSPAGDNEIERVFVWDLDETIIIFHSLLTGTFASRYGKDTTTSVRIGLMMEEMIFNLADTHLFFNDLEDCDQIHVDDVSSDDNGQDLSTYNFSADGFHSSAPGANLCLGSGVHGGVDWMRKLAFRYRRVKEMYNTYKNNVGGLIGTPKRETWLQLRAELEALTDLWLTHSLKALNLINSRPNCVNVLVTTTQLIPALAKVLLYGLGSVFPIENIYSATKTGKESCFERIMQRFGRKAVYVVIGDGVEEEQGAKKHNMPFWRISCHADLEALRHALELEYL
# Target sequence (Q15475 whole entry, looked up): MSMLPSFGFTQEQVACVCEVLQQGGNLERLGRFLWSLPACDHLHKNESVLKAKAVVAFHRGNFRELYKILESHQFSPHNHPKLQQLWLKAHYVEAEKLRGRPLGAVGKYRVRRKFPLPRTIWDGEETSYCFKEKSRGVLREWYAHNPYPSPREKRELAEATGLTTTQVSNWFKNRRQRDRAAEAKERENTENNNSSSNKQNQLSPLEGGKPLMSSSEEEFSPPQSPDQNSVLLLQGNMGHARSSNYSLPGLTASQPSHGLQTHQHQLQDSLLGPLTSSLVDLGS
#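 AlphaScreen luminescence read after one hour at 37 °C in darkness. Pin-transferred compounds met GST-Six1 and His-Eya2 protein (5X stock 250 nM/500 nM) plus glutathione donor and Ni-chelate acceptor beads (5X, 50 ug/mL).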
# D2 ag: human D2 receptor agonism in beta-arrestin assay | DiscoveRx PathHunter D2 beta-arrestin, luminescence, 90 min; 100% = 57 uM dopamine signal | hit rate 0.084% among 360,000 | P14416 | activation, % (concentration not given with the values); in the data active = activation above about 40%; inconclusive = about 15% to 40%; inactive = below about 15%; also: compound concentration not given in the record; the text of the record calls up to 30% inactive
#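 DiscoveRx PathHunter D2 beta-arrestin cells (2,100/well) attached overnight, then compound-stimulated 90 min at 37 C in HBSS/10 mM HEPES/0.1% Tween-20 buffer; beta-galactosidase complementation read by luminescence after 1 h at ambient temperature. Dopamine 57 uM final (EC100) as control.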
# Sfp inh: inhibitors of Bacillus subtilis Sfp phosphopantetheinyl transferase; Q9F4F7; AID 1490; Potency, µM, for inactives: max response, negative = inhibition, actives largely listed as inhibitors; hit rate 3.5% among 310,000; Biochemical Sfp PPTase activity, qHTS; active = well fitted inhibition curve with a large enough effect; inconclusive = small, poorly fitted or top-dose-only effect, or another doubt; inactive = no such curve, though single readings can be large or run the other way;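 also: the enzyme is Sfp with the accession as filed and its product quenches rhodamine fluorescence; potency is read from the fitted curve at half-maximal effect; 0% = enzyme reaction without inhibitor and -100% = no enzyme wells; top concentration of the series not given in the record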
#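 Compounds were incubated with enzyme (final 15 nM) for 15 min at room temperature before substrate addition started the reaction. Fluorescence at 525 nm excitation, 598 nm emission was recorded immediately and after 30 minutes.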
# D2 potentiator: positive allosteric modulators of human D2 dopamine receptor; P14416; DiscoveRx D2 beta-arrestin cells, luminescence, 90 min; 100% = 57 uM dopamine signal; potentiation, % (concentration not given with the values); hit rate 0.23% among 360,000; active = potentiation of 50% or more; inconclusive = 30% to 50%; inactive = 30% or less;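 also: compound concentration not given in the record; tested on top of an EC20 dose of dopamine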
#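 PathHunter D2 cells, attached overnight at 37 deg C, received compound in DMSO plus dopamine at EC20 (50 nM final) for 90 min at 37 deg C. Beta-arrestin recruitment was read as luminescence after 1 h with detection reagent at ambient temperature.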
# PINK1 expr mod: PINK1 expression modulation; hit rate 0.2% among 410,000; PINK1 immunofluorescence, high-content cytometry, 24 h; AID 624263; Potency, µM (series often up to 76.6 µM), without a hit: at the highest dose activation (PINK1 increase), actives largely listed as activators; active = well fitted activation curve with a large enough effect; inconclusive = small, poorly fitted or top-dose-only effect; inactive = flat fitted curve, though single readings scatter; cell line not stated here;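 also: potency is read from the fitted curve at half-maximal effect; % of control where 0% means no effect; nearly all actives have a fitted effect of over 65% in size; a mitochondrial uncoupler was the plate control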
#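 Readout is PINK1 immunofluorescence, quantified alongside mitochondrial, cell and nuclear markers by laser-scanning microplate cytometry. Cells from a stable line were exposed to compound titrations (5 concentrations) for 24 hours, with CCCP controls.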
# * marks the source's active call; other numbers are inactive results; u = inconclusive; x = not tested or not shown; [ ] = remark or other dose. This is a random part of the collection; any-hit rate near 3.7%.
# The line under a structure holds: Six1-Eya2 inh	Sfp inh	TRPV1 potentiator	PINK1 expr mod	CtBP-E1A inh	D2 ag	D2 potentiator
CCCCNC(=O)C1c2ccccc2OCC(=O)N1CCCN1CCOCC1 (centres undefined)
→ -0.6	x	x	1.2%	7.4	x	x
S=C(Nc1ccccc1)Nc1nc2ccccc2n1CCOc1ccc(Cl)cc1
→ 0.0	u	15.8	-1.2%	-24.7	-4.0	-26.1
Cn1cnc([N+](=O)[O-])c1Sc1nc(N)nc2c1ncn2C1OC(CO)C(O)C1O (centres undefined)
→ 7.0	x	x	-5.7%	-2.0	-5.8	-8.7
COC(CNC(=O)c1ccc(Cn2c(=S)[nH]c3cc4c(cc3c2=O)OCO4)cc1)OC
→ -1.7	15.0%	5.1	1.6%	0.2	-0.8	-18.8
CNCCC1Sc2ccccc2Oc2ccccc21 (centres undefined)
→ 5.4	-8.2%	-23.4	1.6%	7.1	-4.6	-12.5
COc1ccc(NC(=O)CSc2nnc3n2CCCCC3)cc1
→ 6.7	9.1%	15.5	-0.8%	7.2	-1.2	-3.8
COCCN(Cc1cc2cc(C)ccc2n2nnnc12)C(=S)Nc1cccc(C)c1
→ 1.2	-20.3%	5.6	-0.6%	x	-3.6	-12.0
CC(C)Cn1c(N)c(C(=O)COC(=O)[C@H](C)NC(=O)c2ccccc2Cl)c(=O)n(C)c1=O
→ 31.0	x	-5.0	-1.9%	0.0	-2.5	-24.4
CSc1ccc(/C=C2\C(=N)N3N=C(CC(=O)N4CCCCC4)SC3=NC2=O)cc1
→ 1.2	7.7%	-8.5	-0.7%	-1.4	-1.2	-20.3
N#Cc1cccc(NC(=O)C2SC(=Nc3ccccc3)C(C(=O)N3CCOCC3)=C2N)c1 (centres undefined)
→ -19.5	20.7%	8.5	2.7%	-6.6	-0.8	-4.3
COc1ccc(NC(=O)COC(=O)CCCC2=NS(=O)(=O)c3ccccc3N2)cc1
→ 6.0	11.9%	7.6	-0.7%	2.7	0.5	-3.9
N#Cc1c(-c2ccco2)cc(C2CC2)nc1N
→ -1.1	31.6µM*	-17.5	4.8%[38.3 µM]	0.9	-4.4	-4.6
COc1ccc(C(=O)NCc2cnn(C)c2C)cc1OC1CCN(C(C)C)CC1
→ 7.9	1.6%	2.2	-1.2%	-1.9	-2.2	0.9
COCCCNC(=O)c1ccc(N2CCOCC2)c(NS(=O)(=O)c2ccc(OC)cc2)c1
→ 4.3	17.9%	11.5	-3.9%[38.3 µM]	-0.8	0.8	0.5
Cc1ccc(NC(Cc2cc(C)no2)c2ccccc2)cc1 (centres undefined)
→ -22.4	3.8%	-6.7	-2.5%	-1.0	-2.6	-12.3
CCCOc1ccc(S(=O)(=O)NNC(=O)c2cc3ccccc3o2)cc1
→ 6.2	-1.5%	u	4.2%	4.4	0.7	-2.8
COC(=O)C1=C(CS(=O)(=O)c2ccc(C)cc2)NC(=O)NC1c1ccc(OC)c(OC)c1 (centres undefined)
→ 6.1	10.4%	9.6	-1.1%	0.7	-11.6	0.3
Nc1nc(SCc2ccc(Br)cc2)c2ncn(C3OC(CO)C(O)C3O)c2n1 (centres undefined)
→ -5.5	x	x	4.9%	0.9	2.4	-5.1
Cc1cc(N2CCOCC2)ccc1/C=C1\SC(=O)N(C(C)C)C1=O
→ 1.6	-17.4%	-7.5	2.0%	4.1	-0.9	3.3
Cc1ccc(-n2c(SCc3nnc4n3CCC4)nnc2-c2ccccc2)cc1
→ -1.2	17.1%	3.3	-0.2%	2.2	-2.3	-12.3
CC(C)n1c(N2CCCC2)nc2c1c(=O)[nH]c(=O)n2C
→ 0.7	8.0%	3.8	2.4%	-10.2	-4.6	-17.1
Cc1cc(Nc2ccccc2)n(CCOC(=O)COc2ccccc2)n1
→ 3.6	-16.9%	-18.1	-0.9%	0.2	-1.6	2.5
Clc1ccccc1OCCCOc1cccc2cccnc12
→ 3.2	-2.6%	-14.6	0.7%	-5.6	-4.8	-8.8
O=C(O)CN(c1ccc(F)cc1)S(=O)(=O)c1ccc2c(c1)OCCO2
→ 5.2	22.5%	14.8	1.2%[38.3 µM]	-1.7	-3.2	-8.3
Cc1cccc(COC[C@H](CC(C)C)N2CCN(C(=O)c3ccc(C(C)(C)C)cc3)CCC2=O)c1
→ 1.3	x	x	-1.4%	-1.1	x	x
O=C(Cc1ccccc1)NC(NCCCN1CCOCC1)(C(F)(F)F)C(F)(F)F
→ 5.2	26.3%	17.7	1.4%	6.5	0.7	-6.3
COc1cccc(Nc2nc(-c3ccccc3)nc3ccccc23)c1
→ 3.1	21.2%	0.6	15.0%	15.6	4.1	-2.0
CC1(C(=O)NS(=O)(=O)c2ccc3ccccc3c2)CCN1C(=O)CC1CCCCC1 (centres undefined)
→ 17.8	x	x	0.3%	5.0	6.0	4.0
COc1c(Br)cc(Br)cc1C(=O)Nc1ccccc1N1CCCC1
→ -7.6	2.4%	7.6	8.9%	5.1	-1.9	-4.9
O=C(NC1CCc2ccccc21)C1CCN(S(=O)(=O)c2ccc(-n3cnnn3)cc2)CC1 (centres undefined)
→ -3.9	24.7%	2.6	1.7%	-0.7	0.4	9.8
CC1(C)CC(=O)C2=C(C1)Nc1ccccc1NC2c1ccc(F)cc1 (centres undefined)
→ 3.0	3.1%	-11.5	0.2%	6.4	-3.8	-3.8
S=C(NCCc1ccccn1)Nc1cc(Cl)cc(Cl)c1
→ 18.8	9.3%	0.2	-1.4%	3.1	2.9	-0.7
CCC(=O)N1C(Cc2ccccc2)COC1(C)C (centres undefined)
→ 15.3	26.5%	-8.0	1.4%	11.5	-3.0	-4.2
CCc1ccc(/C(C)=N/NC(=O)C(O)c2ccccc2)s1 (centres undefined)
→ -11.1	x	x	-3.0%	-7.3	-1.8	-4.5
O=S1(=O)CC2NC(=S)N(c3cccc(Br)c3)C2C1 (centres undefined)
→ 7.3	8.6%	-16.0	0.4%	x	-4.3	-10.2
O=C(NC(c1ccccc1)c1ccccc1)c1cccc(S(=O)(=O)NCc2ccccc2)c1
→ -7.8	6.5%	2.6	-0.7%	-7.3	-2.3	-17.6
O=c1[nH]c2ccc(Cl)cc2c(-c2ccccc2)c1[N+](=O)[O-]
→ -7.9	10.5%	2.4	-1.0%	2.8	1.6	2.4
O=C(c1ccco1)N1CCN(C(=O)C2CC(c3ccccc3F)=NO2)CC1 (centres undefined)
→ 2.7	2.2%	-4.5	-1.1%	3.1	-0.5	-5.3
O=c1c2cnn(-c3ccc(F)cc3)c2ncn1Cc1cccnc1
→ -4.9	-1.5%	22.6	3.8%	-1.0	-0.6	-27.7
O=C(NCCCl)Nc1ncn[nH]1
→ 0.6	x	x	-3.6%	12.5	-5.0	-22.1
CCCC(=O)Nc1ccc(OCC(=O)OC)cc1
→ 2.5	13.9%	-3.1	-1.0%	3.9	0.8	-8.4
O=C(CNC(=O)c1ccc2c(c1)OCO2)NCc1cccs1
→ 6.2	x	x	-1.3%	2.9	-0.4	-3.2
O=C(CN1C(=O)S/C(=C\c2ccc(C(=O)O)cc2)C1=O)Nc1ccccc1
→ 5.0	-20.0%	-2.9	5.2%	x	-0.7	-1.6
CC(O)(CC(=O)CC(=O)c1ccccc1)c1ccccc1 (centres undefined)
→ 4.6	x	x	2.8%	-4.3	-3.6	-13.4
COC(=O)CCCn1cc(CN2CC(N(C)C)CS2(=O)=O)nn1 (centres undefined)
→ 0.1	x	x	1.6%	5.8	x	x
CC(=O)Oc1cc2c(C(=O)NCc3ccncc3)c(C)oc2c2ccccc12
→ -1.6	-19.4%	2.4	5.8%	-0.6	4.3	-4.0
COC(=O)Cc1ccc(OCc2ccc(Cl)nc2)cc1
→ 10.4	-10.8%	7.0	2.1%	2.7	-2.9	-2.3
COc1ccc(CNC(=S)N/N=C(\C)c2ccc(OC)cc2)cc1
→ -25.5	5.8%	u	7.2%	-23.5	3.8	-2.0
O=C(NC1(C(F)(F)F)NC(=O)N(c2ccc(F)c(Cl)c2)C1=O)c1ccncc1 (centres undefined)
→ -1.0	-1.4%	-4.1	2.3%[38.3 µM]	0.7	-1.4	-11.6
CC1CCN(C(=O)CSc2n[nH]c(-c3cccs3)n2)CC1
→ -1.2	10.6%	-7.2	0.3%	3.6	0.3	-5.1
COC(=O)[C@@]1(Sc2ccc(C)cc2)CC(=O)N[C@@H]1c1ccc(C(F)(F)F)cc1
→ -2.2	x	x	0.9%	-10.1	x	x
COC(=O)c1c(NC(=O)CSc2ccccc2N)sc(C)c1C
→ -7.1	-20.3%	13.1	3.6%	-22.5	-2.9	-8.3
O=C(Cc1ccc(-c2ccccc2)cc1)NCc1ccccc1
→ 1.5	8.8%	4.6	20.1%	1.4	-2.8	-8.5
COc1ccc(S(=O)(=O)NCCC(=O)NC(C)c2ccccc2)cc1 (centres undefined)
→ 1.0	15.6%	13.7	0.2%[38.3 µM]	3.2	1.8	5.9
O=C(CN1CCN(S(=O)(=O)c2ccc(Br)s2)CC1)NCC1CCCCC1
→ 8.4	x	x	-0.3%	-3.6	3.9	-11.9
Cc1ccc(NS(=O)(=O)c2cccc(C(=O)O)c2)cc1S(=O)(=O)N1CCOCC1
→ 7.4	11.4%	0.7	1.1%	-0.7	-0.7	-12.8
NC(=O)c1ccsc1NC(=O)CSc1nnc(C2CC2)n1Cc1ccccc1
→ -7.8	3.6%	3.7	-1.0%	-3.0	-1.6	-4.7
O=C([C@@H]1Cc2ccccc2CN1)N1CCN(Cc2ccccc2)CC1
→ 1.5	-8.0%	11.2	1.3%	5.2	-1.0	-5.5
CCCOc1ccc(C(=O)N/N=C/c2ccc(-c3ccc(S(=O)(=O)Nc4ncccn4)cc3)o2)cc1
→ -21.4	-4.4%	-11.6	9.5%[38.3 µM]	-13.3	-2.8	-2.3
CCOC(=O)C1CCN(C(=O)CSc2n[nH]c(=O)[nH]c2=O)CC1
→ 6.2	2.1%	-5.4	2.2%	-0.2	0.8	-5.0
CCCCCCCCNCCS(=O)(=O)NCc1ccc(OC)cc1
→ 4.9	x	x	-1.0%	8.7	-2.5	-17.8
O=C1NN(c2ccccc2)C(=O)/C1=C/c1ccc(-c2cccc(C(=O)O)c2)o1
→ -8.4	9.0%	21.6	1.6%	-0.4	-6.9	-9.1
CN(Cc1ccccc1)c1ccc(C(=O)O)cc1[N+](=O)[O-]
→ 2.2	19.2%	4.4	-1.1%	7.2	-2.7	-22.8

# Bioassay records from PubChem BioAssay.
